KCNQ2 block: KCNQ2 potassium channel inhibitors, primary screen, cell-based, CHO-K1, FluxOR thallium flux, B-score (AID 2156). O88943. 20 min; active compounds read low; only compounds with negative scores are shown here; some inactives read as strong as hits. B-score at 10 µM. 310,000 tested, 1.1% active;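 active = fluorescence ratio B-score at most minus 3 library SDs, with starting brightness B-score within 2 library SDs, cut at about -5.5 in these data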
Target sequence (O88943 whole entry, looked up): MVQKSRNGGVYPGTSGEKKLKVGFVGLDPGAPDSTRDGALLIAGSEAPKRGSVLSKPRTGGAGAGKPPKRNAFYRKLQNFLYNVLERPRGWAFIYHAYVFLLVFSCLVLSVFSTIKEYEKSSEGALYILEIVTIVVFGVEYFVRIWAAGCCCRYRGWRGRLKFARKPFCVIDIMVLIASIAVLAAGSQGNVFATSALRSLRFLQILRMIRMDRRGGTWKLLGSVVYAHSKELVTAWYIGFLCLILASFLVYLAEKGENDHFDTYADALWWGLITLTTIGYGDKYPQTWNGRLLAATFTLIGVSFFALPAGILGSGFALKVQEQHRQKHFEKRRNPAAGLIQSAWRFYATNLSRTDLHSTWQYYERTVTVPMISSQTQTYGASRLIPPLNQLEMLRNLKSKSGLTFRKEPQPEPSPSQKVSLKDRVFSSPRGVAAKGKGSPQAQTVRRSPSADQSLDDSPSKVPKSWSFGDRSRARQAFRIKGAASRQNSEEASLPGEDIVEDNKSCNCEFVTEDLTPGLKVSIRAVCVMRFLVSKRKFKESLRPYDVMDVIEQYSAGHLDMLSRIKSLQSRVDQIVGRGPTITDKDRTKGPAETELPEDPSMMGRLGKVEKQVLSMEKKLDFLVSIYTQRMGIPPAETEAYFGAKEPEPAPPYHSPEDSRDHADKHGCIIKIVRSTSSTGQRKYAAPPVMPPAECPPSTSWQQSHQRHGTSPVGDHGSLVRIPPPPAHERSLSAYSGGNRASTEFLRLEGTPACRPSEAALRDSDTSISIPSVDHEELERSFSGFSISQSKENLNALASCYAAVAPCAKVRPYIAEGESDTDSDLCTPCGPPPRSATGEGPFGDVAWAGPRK
KCNQ2 block baseline: recorded beside KCNQ2 block, whose call it bears; B-score; measured here: initial fluorescence intensity artifact check;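 brightness before thallium and not channel activity; 0 = typical well and far values either way flag optical interference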
Numbers without * were called inactive; i = inactive. Some of the compounds tested (hit frequency here may not be typical).

| Molecule | KCNQ2 block | KCNQ2 block baseline |
| --- | --- | --- |
| CC(C)CN(CC(C)C)S(=O)(=O)c1cc([N+](=O)[O-])ccc1N1CCCCCC1 | -6.1* | -2.9* |
| CC1CCCCC1NS(=O)(=O)CCNC(=O)c1ccc2c(c1)OCO2 (stereo not given) | i | 2.4 |
| CN1CCN(C(=O)C2CC(c3ccc(F)cc3)=NO2)CC1 (stereo not given) | i | 2.3 |
| COC(=O)C(C)Oc1ccc2c(c1)O/C(=C\c1ccco1)C2=O (stereo not given) | i | -0.35 |
| Cc1ccc(S(=O)(=O)Nc2ccc3c(c2)nc(CN2CCCC2)n3C)cc1 | i | -0.68 |
| O=C1C(=O)N(CCN2CCOCC2)C(c2cccc(Cl)c2)/C1=C(/O)c1ccc2c(c1)OCO2 (stereo not given) | i | 0.39 |
| O=C(C1CCCCC1)N1CCC(c2nc3ccccc3[nH]2)CC1 | i | -1.6 |
| COc1ccc(-c2nnn(CC(=O)N3CCN(c4ccccc4OC)CC3)n2)cc1OC | i | 0.11 |
| C=CCc1cc(/C=C2/NC(=O)N(CC)C2=O)cc(OCC)c1OCc1ccc(C(=O)O)cc1 | i | 0.07 |
| Cc1ccc(NCN2C(=O)C(=O)c3ccccc32)nc1 | i | -0.08 |
| CC(OC(=O)c1ccc2c(=O)n3c(nc2c1)CCC3)C(=O)NC1CCCCC1C (stereo not given) | i | 1.4 |
| COc1cc(C2CC(=O)c3cnc(NC(C)=O)nc3C2)cc(OC)c1OC (stereo not given) | i | 1.2 |
| COc1cccc(N=c2oc3ccccc3cc2-c2nc3ccccc3[nH]2)c1 | i | 0.81 |
| Fc1ccccc1Cc1noc(CN(Cc2ccccn2)CC2CCCO2)n1 (stereo not given) | i | -1.2 |
| O=C(Nc1cccc(S(=O)(=O)N2CCOCC2)c1)c1cnccn1 | i | 0.95 |
| Cc1nn(C)cc1CNC(=O)C1C2CCC(O2)C1C(=O)O (stereo not given) | i | -0.49 |
| C[n+]1c(/C=C/c2ccc(O)cc2)ccc2ccccc21 | i | -0.33 |
| C/C(=N/N=C(/N)SCc1ccccc1)C(C)(C)C | i | 0.05 |
| CCOc1ccccc1C(C(=O)NCCOC)N(CCOC)C(=O)Cn1nnc2ccccc21 (stereo not given) | i | 1.6 |
| COc1ccc(Cl)cc1C(=O)NCCN1CCOCC1 | i | -0.05 |
| COc1ccc(C(=O)OCC(=O)N2CCCCC2)cc1[N+](=O)[O-] | i | 1.1 |
| COC(=O)C(C)N1C(=O)S/C(=C/c2cc(C)n(C(C)C)c2C)C1=O (stereo not given) | i | -0.46 |
| O=C1CC(c2nc3ccccc3[nH]2)CN1c1ccccc1 (stereo not given) | i | 2 |
| COC(=O)c1[nH]c(C)c(/C(O)=C2\C(=O)C(=O)N(CCN(C)C)C2c2ccccc2OC)c1C (stereo not given) | i | 1.2 |
| CCCCn1cc(C(C)(C)C)c(C#N)c1NC(C)=O | i | 0.09 |
| CCOc1ccc(C(=O)NCCCn2ccnc2)cc1 | i | 1.3 |
| Cc1ccc(C(=O)N/N=C/c2ccc(OC(=O)c3ccccc3Cl)cc2)cn1 | i | -0.99 |
| O=C(Cn1nc(-c2ccccc2Cl)ccc1=O)Nc1ccccc1-c1ccccc1 | i | 0.35 |
| CC(=O)Oc1cccc(N2C(=O)CC(Nc3ccc(N4CCOCC4)cc3)C2=O)c1 (stereo not given) | i | -1.3 |
| COC(=O)C1=C(C)OC(N)=C(C#N)C1c1ccc(OC)c(CSc2ccccn2)c1 (stereo not given) | i | -0.4 |
| O=C(NCCOc1cccnc1)C1CCC(=O)N(Cc2ccccc2F)C1 (stereo not given) | i | -0.89 |
| Nc1cc(=O)[nH]n1C1CCN(c2ccccc2)CC1 | i | 0.63 |
| COc1ccccc1NC(=O)c1ccc2nc(N3C(=O)CCC3=O)sc2c1 | i | -0.32 |
| COC(=O)c1ccc(OC(=O)c2ccc(OC)cc2)c(OC)c1 | i | 0.86 |
| O=C(COC(=O)c1cc(=O)[nH]c2ccc(Br)cc12)c1ccccc1 | i | 0.18 |
| Cc1csc2nc(O)c(C(=O)NCCCc3ccccc3)c(=O)n12 | i | -0.65 |
| Cc1cc(NC(=O)CCC(=O)N(Cc2ccco2)C2(C(=O)NC3CCCC3)CCCCC2)no1 | i | 1 |
| O=C(COC(=O)c1cccc(-n2cnnn2)c1)Nc1c(Cl)cccc1C(F)(F)F | i | -1.4 |
| Nc1nn(-c2cccc(F)n2)cc1-c1ccc(Cl)cc1 | i | 2.9 |
| CCCOc1ccc(N2C(=O)C3ON(c4ccccc4)C(c4ccc(O)c(OC)c4)C3C2=O)cc1 (stereo not given) | i | 0.53 |
| COC(=O)c1ccc(C(=O)Nc2nc3cc(N)c(C)cc3s2)cc1 | i | 0.08 |
| CC1(C)CC(=O)C=C(NNC(=O)c2ccc(N)cc2)C1 | i | -0.87 |
| COc1ccc(CCn2c(C)ccc2C)cc1OC | i | 1.2 |
| CCOC(=O)Cc1csc(NC(NC(=O)OCC)(C(=O)OCC)C(F)(F)F)n1 (stereo not given) | i | 1.7 |
| Cc1ccc(-c2noc(CSc3nnc(-c4ccncc4)n3-c3ccc(C)cc3)n2)cc1 | i | -0.26 |
| COc1ccc(-c2cc(CNC(=O)CCl)on2)cc1 | i | 0.42 |
| Cc1noc(C)c1COC(=O)/C=C/c1ccc(Cl)cc1 | i | 0.01 |
| COc1ccc(CN2CCN(Cc3cccc(F)c3)CC2)cc1OC | i | 0.05 |
| CC(C)c1ccc(C2/C(=C(/O)c3ccccc3)C(=O)C(=O)N2CCCN2CCOCC2)cc1 (stereo not given) | i | 1.4 |
| CC(=O)OCc1c(-c2ccccc2)c2cc([N+](=O)[O-])ccc2n1C | i | -0.78 |
| CC(C(=O)NCc1ccc(F)cc1)c1ccc([N+](=O)[O-])cc1 (stereo not given) | i | -0.89 |
| CC1CN(C(=O)CN(C)S(=O)(=O)c2ccc3ccccc3c2)CC(C)O1 (stereo not given) | i | -1.5 |
| O=C(NCCc1ccccc1)C(=O)NCC1CCCN1S(=O)(=O)c1ccccc1 (stereo not given) | i | -1.7 |
| COC(=O)c1cc(OC)c(OC)cc1NC(=O)CN1C(=O)c2ccccc2C1=O | i | 1.2 |
| CCn1ccc(C(=O)Nc2sc3c(c2C(=O)OC)CCC3)n1 | i | -2.8 |
| Cc1ccccc1CSc1nccn1-c1ccccc1 | i | 0.23 |

Continued.
| Molecule | KCNQ2 block | KCNQ2 block baseline |
| --- | --- | --- |
| Cc1ccc(C)c(OCC(=O)O/N=C(\N)c2ccccn2)c1 | i | -0.15 |
| CCOC(=O)c1cc2sc(C)cc2n1CC(=O)NCCc1ccccc1 | i | 0.96 |
| CCOc1ccccc1Nc1ccc(C(=O)O)cc1N | i | 1.8 |
| Cc1cccc(NC(=O)CCNS(=O)(=O)c2cccc3nonc23)c1 | i | -1.3 |
| CC(CCc1ccccc1)NC(=O)C(Cc1ccccc1)NC(N)=O (stereo not given) | i | -0.22 |
| CCOC(=O)C1CCCN(S(=O)(=O)c2ccc3c(c2)CC(C)N3C(=O)C2CC2)C1 (stereo not given) | i | 3.1 |
| O=C(c1ccc(F)cc1)N1CCC(C(=O)N2CCN(Cc3ccc4c(c3)OCO4)CC2)CC1 | i | 0.91 |
| Cc1ccc(N(CC(=O)NCCSc2nc3ccccc3s2)S(=O)(=O)c2ccccc2)c(C)c1 | i | 2.5 |
| N/C(=N\OC(=O)c1cccc(Br)c1)c1ccccc1 | i | 0.05 |
| CN1C(=O)NC(c2ccc(C(F)(F)F)cc2)C2=C1CC(C)(C)CC2=O (stereo not given) | i | -1.2 |
| CCn1ncc(NC(=S)NCCc2ccc(OC)c(OC)c2)c1C(N)=O | i | 0.02 |
| CCCCOC(=O)/C=C\C(=O)OCCCC | i | -3.1 |
| CCOC(=O)C1=C(N)Oc2cc(C)n(CCc3ccc(OC)c(OC)c3)c(=O)c2C1c1cccnc1 (stereo not given) | i | -0.47 |
| CCN(CC)C(=O)CSc1nc2ccccc2c(=O)n1CC1CCCCC1 | -6.6* | 0.09* |
| CCCCOc1ccc(C(=S)N2CCC(C(N)=O)CC2)cc1 | i | -0.01 |
| CN(CC(=O)Nc1c(Cl)cccc1Cl)C(=O)c1ccncc1 | i | -0.36 |
| CCCCCn1nc(C(=O)OCc2nnc(-c3ccccc3)o2)c2ccccc2c1=O | i | -0.67 |
| COc1ccc(/C=N/NC(=O)c2cc[n+]([O-])cc2)cc1OC | i | 5.3 |
| CCOc1ccc(C(=O)N2CCCC(c3nc(-c4cccs4)no3)C2)cc1 (stereo not given) | i | 0.38 |
| CC(C)n1c(N)c(C#N)c2ccc([N+](=O)[O-])cc2c1=O | i | 2.9 |
| O=C(CN1C(=O)/C(=C\c2ccccc2Cl)Oc2ccccc21)NCc1cccnc1 | i | -0.85 |
| CC(C)OC(=O)NC(C)(C)COC(=O)Nc1cccc(Cl)c1 | i | 1.5 |
| COc1ccccc1CNC(=O)c1cccc(N(C)C)c1 | i | 1.5 |
| CCOC(=O)CCCCCN(Cc1ccccc1)S(=O)(=O)c1ccc([N+](=O)[O-])cc1 | i | -0.21 |
| COc1cccc(CN(C)C(=O)CCNC(=O)c2ccc(Br)cc2)c1 | i | -0.12 |
| CN1CCN(C(=O)c2ccccc2-c2nc(-c3ccc(Cl)cc3)no2)CC1 | i | 0.59 |
| COc1ccc(CCNC(=O)COC(=O)c2ccc(N3CCCC3=O)cc2)cc1OC | i | -0.67 |
| CCOC(=O)c1ccccc1NC(=O)COc1ccccc1 | i | -1.3 |
| Cc1ccc(S(=O)(=O)c2nc(S(C)(=O)=O)sc2N2CCC(C)CC2)cc1 | i | -0.04 |
| Cc1cccc(OCC(=O)N/N=C/C=C/c2ccco2)c1 | i | -1.4 |
| COc1ccc(OC)c(C(=O)Cn2c3[n+](c4ccc(C(F)(F)F)cc42)CCCCC3)c1 | i | 2.3 |
| Cc1cc(C(c2nnnn2Cc2ccccc2)N2CCOCC2)c(C)n1-c1ccc2c(c1)OCO2 (stereo not given) | i | 0.24 |
| O=C(CNC(c1ccccc1)c1ccccc1)Nc1cc([N+](=O)[O-])ccc1Cl | i | 0.01 |
| Cn1ncc(C#N)c1/N=C/N1CCOCC1 | i | 0.67 |
| CC(C)CN(C(=O)COC(=O)c1c(Cl)ccc(Cl)c1Cl)C1CCS(=O)(=O)C1 (stereo not given) | i | -0.35 |
| O=c1c[n+]([O-])c2ccccc2n1OCc1ccccn1 | i | -1.4 |
| CC(C)=CCC/C(C)=C/CCC(C)NCCN1CCNCC1 (stereo not given) | i | 0.36 |
| Cc1ccc(NC(=O)C2=CCN(S(=O)(=O)c3ccc(F)cc3)CC2)cc1 | i | 1.4 |
| OCC1(CCc2ccccc2)CCN(Cc2ccccc2Cl)CC1 | i | -0.78 |
| O=C(Nc1cc(C(=O)N2CCCC2)ccc1N1CCCC1)c1ccccc1F | i | -0.15 |
| COc1ccc(Cl)cc1NC(=O)N1CCN(CCc2ccccc2)CC1 | i | -0.81 |
| CCCC[C@H]1COCCS(=O)(=O)N1Cc1ccc(C)cc1 | i | 2.4 |
| CCc1nnc(NS(=O)(=O)c2ccc(NC(=O)c3ccccc3C)cc2)s1 | i | -0.68 |
| CC1CCCC(C)N1C(=O)COC(=O)Cc1ccc(Cl)cc1 (stereo not given) | i | 0.9 |
| O=C1CC(c2ccccc2)CC(=O)N1c1ccccc1 | i | 2 |
| COc1ccc(S(=O)(=O)Nc2cccnc2)c(C)c1C | i | -0.06 |
| COC(=O)c1ccccc1NC(=O)C1CCCC1 | i | 0.77 |
| COc1ccc(CNc2nc(C)cc(C)c2C#N)cc1 | i | -0.04 |

Random excerpt: 2 records from the list.
| Molecule | KCNQ2 block | KCNQ2 block baseline |
| --- | --- | --- |
| Cc1ccc(NCN2C(=O)C(=O)c3ccccc32)nc1 | i | -0.08 |
| CCCC[C@H]1COCCS(=O)(=O)N1Cc1ccc(C)cc1 | i | 2.4 |

Additional results follow:
| Molecule | KCNQ2 block | KCNQ2 block baseline |
| --- | --- | --- |
| Cc1ccc(NS(=O)(=O)c2ccc3[nH]c(=O)[nH]c3c2)cc1 | i | -1.5 |
| COc1ccc(OCC(O)CN(C)C(=O)/C=C/c2cccc([N+](=O)[O-])c2)cc1 (stereo not given) | i | -0.73 |
| Fc1ccc(C(c2nnnn2C2CCCC2)N2CCN(Cc3ccccc3)CC2)cc1 (stereo not given) | i | 0.27 |
| CC(=O)c1ccccc1OC(=O)c1ccc([N+](=O)[O-])o1 | i | 0.32 |
| OC(CNCC(c1ccc(Cl)cc1Cl)c1c[nH]c2ccccc12)c1ccccc1 (stereo not given) | i | 3.3 |
| C=CCN1CCN(C(=O)c2c(-c3ccccc3)noc2C)CC1 | i | -2.4 |
| CCOC(=O)CN(c1ccccc1C)S(=O)(=O)c1ccc(Cl)cc1 | i | 2.5 |
| Cc1c(C(=O)C(=O)NCCC2=CCCCC2)c2ccccc2n1C | i | 0.85 |
| CCCCC1(CC(=O)OC)C(=O)N(c2ccccc2)N(c2ccccc2)C1=O | i | -0.09 |
| O=S(=O)(Nc1ccc(Oc2ncccn2)c(Cl)c1)c1ccc(Cl)cc1 | i | -0.12 |
| Cc1ccc(NC(=O)CN2C(=O)NC(C)(c3ccc(Cl)cc3)C2=O)cc1S(=O)(=O)N1CCOCC1 (stereo not given) | i | -2.3 |

Entries listed so far that have an NH in an aromatic ring (eight):
| Molecule | KCNQ2 block | KCNQ2 block baseline |
| --- | --- | --- |
| O=C(C1CCCCC1)N1CCC(c2nc3ccccc3[nH]2)CC1 | i | -1.6 |
| COc1cccc(N=c2oc3ccccc3cc2-c2nc3ccccc3[nH]2)c1 | i | 0.81 |
| O=C1CC(c2nc3ccccc3[nH]2)CN1c1ccccc1 (stereo not given) | i | 2 |
| COC(=O)c1[nH]c(C)c(/C(O)=C2\C(=O)C(=O)N(CCN(C)C)C2c2ccccc2OC)c1C (stereo not given) | i | 1.2 |
| Nc1cc(=O)[nH]n1C1CCN(c2ccccc2)CC1 | i | 0.63 |
| O=C(COC(=O)c1cc(=O)[nH]c2ccc(Br)cc12)c1ccccc1 | i | 0.18 |
| Cc1ccc(NS(=O)(=O)c2ccc3[nH]c(=O)[nH]c3c2)cc1 | i | -1.5 |
| OC(CNCC(c1ccc(Cl)cc1Cl)c1c[nH]c2ccccc12)c1ccccc1 (stereo not given) | i | 3.3 |
